BJeLR lethal: BJeLR cell viability loss; BJeLR (HRASV12) viability, CellTiter-Glo ATP luminescence, 48 h; reference of the scale not given here; inhibition, % (no concentration beside the values); 300,000 compounds, 0.17% hits; AID 1554;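 active = replicate mean above 50%; inconclusive = above 50% but judged a plate artefact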;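 also: 50 nL library stock added to about 25 µL; numbers are from one replicate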
Mtb hypoxia rep: Mtb hypoxia fluorescent reporter inhibition. M. tuberculosis hypoxia-regulated fluorescent reporter, fluorescence. 300,000 compounds, 0.1% hits. fluorescence inhibition, % (no concentration beside the values). AID 1159583;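 active = 35 to 45% if threefold the growth effect, above 45% if 1.5-fold the growth effect; inactive = the rest, general growth blockers included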;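 also: wells of about 50 µL received 100 nL stock; 0% = vehicle wells and 100% = reference inhibitor wells; whole bacteria with a GFP reporter of the hypoxia response; strong numbers were not always called active; many hits fall short of the cut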
PrP 5UTR inh: inhibition of PrP 5' UTR reporter expression; AID 488862; 340,000 compounds, 0.35% hits; cell-based PrP 5' UTR mRNA reporter, plate reader; inhibition, % (test concentration not listed);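 active = every replicate at 50% or more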;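 also: 0 = median of the neutral control wells; tested in H4 reporter cells; numbers are from one replicate; inactives centre near -14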
ugtP null kill: compounds lethal to S. aureus RN4220 ugtP deletion mutant | 330,000 compounds, 0.54% hits | OD600 growth, 16 h; some inactives read as strong as hits | growth inhibition, % (concentration not given with the values);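 active = z-score under -3 and OD600 up to 0.15 on both plates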;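 also: plate controls were untreated wells for no effect and antibiotic for full effect; wells of about 80 µL received 100 nL stock; the first replicate is given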
RN4220 kill: S. aureus RN4220 growth inhibition. 330,000 compounds, 0.33% hits. OD600, 16 h. inhibition, % (concentration not given with the values);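 active = z-score of -3 or lower and OD600 up to 0.18 on both plates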;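 also: plate controls were untreated cells for no effect and reference antibiotic for full effect; stock transfer was 100 nL into about 80 µL; one replicate is shown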
Autofluor counter: counter-screen for toxin protease inhibitors: compound fluorescence; compound autofluorescence counterscreen, microsphere flow cytometry; active compounds read high; fluorescence intensity (concentration not given with the values); 360,000 compounds, 3.1% hits;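 active = at least 3 SD above the mean of all compounds, about 16000 in these data; inconclusive = too few beads counted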;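 also: 100 nL of 1 mM stock went into each well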
Mtb hypoxia rep growth: further read-out of Mtb hypoxia rep, marked with its call; growth inhibition, %; measured here: M. tuberculosis growth (absorbance);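 0% = vehicle and 100% = reference antibiotic; read after six days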
The depositor's hits bear a star; u = inconclusive; x = no result given.

The opening six entries as a preview:
SMILES	BJeLR lethal	Mtb hypoxia rep	Mtb hypoxia rep growth	PrP 5UTR inh	ugtP null kill	RN4220 kill	Autofluor counter
COc1ccc2nc(N3CCN(C(=O)c4ccc([N+](=O)[O-])o4)CC3)sc2c1	0	x	x	-21	31	9.6	5590
CC(C(=O)Nc1sc2c(c1C#N)CCCCC2)N1C(=O)c2ccccc2C1=O (configuration not stated)	-3	-3	4	-24	0	3.4	9699
COc1ccccc1NC(=O)COC(=O)c1ccc(S(=O)(=O)N2CCCCCC2)cc1	x	1	4	2	0	0.0	3239
Cn1nnnc1SCC1=C(C(=O)O)N2C(=O)[C@@H](NC(=O)[C@H](O)c3ccccc3)[C@H]2SC1	7	x	x	10	x	x	5357
COc1cc(OC)cc(-c2cc3ncccc3cn2)c1	x	17	3	-23	7	7.0	3876
CCOC(=O)CCCCC(=O)c1[nH]c(=O)[nH]c1CSc1nc(C)cc(=O)[nH]1	8	-1	6	-19	6	2.3	6552

All compounds of this part, from the first entry:
SMILES	BJeLR lethal	Mtb hypoxia rep	Mtb hypoxia rep growth	PrP 5UTR inh	ugtP null kill	RN4220 kill	Autofluor counter
COc1ccc2nc(N3CCN(C(=O)c4ccc([N+](=O)[O-])o4)CC3)sc2c1	0	x	x	-21	31	9.6	5590
CC(C(=O)Nc1sc2c(c1C#N)CCCCC2)N1C(=O)c2ccccc2C1=O (configuration not stated)	-3	-3	4	-24	0	3.4	9699
COc1ccccc1NC(=O)COC(=O)c1ccc(S(=O)(=O)N2CCCCCC2)cc1	x	1	4	2	0	0.0	3239
Cn1nnnc1SCC1=C(C(=O)O)N2C(=O)[C@@H](NC(=O)[C@H](O)c3ccccc3)[C@H]2SC1	7	x	x	10	x	x	5357
COc1cc(OC)cc(-c2cc3ncccc3cn2)c1	x	17	3	-23	7	7.0	3876
CCOC(=O)CCCCC(=O)c1[nH]c(=O)[nH]c1CSc1nc(C)cc(=O)[nH]1	8	-1	6	-19	6	2.3	6552
COC(=O)C(C)Sc1nnc2n(-c3cccc(C)c3)c(=O)c3c4c(sc3n12)CCCC4 (configuration not stated)	4	2	1	-16	10	1.2	5136
COc1ccc(NC(=O)c2cc(C)no2)cc1	0	4	7	-23	1	0.4	3557
CCNc1nc(NC(C)(C)C)nc(SCC(N)=O)n1	1	-1	2	-15	-1	1.7	2321
CSCCC(N=C(NS(=O)(=O)c1ccc(Br)cc1)c1ccccc1)C(=O)O (configuration not stated)	-15	10	9	-28	7	0.0	2598
COc1ccccc1OCC(=O)Nc1nc(C)c(C)s1	-2	16	-2	-57	-2	2.1	4004
COc1ccc(S(=O)(=O)N(C)CC(=O)N2CCCCCC2)cc1	1	9	6	-20	10	1.8	3560
Cc1nn(-c2ccccc2)c(Cl)c1/C=N/NC(=O)c1ccn[nH]1	-13	x	x	-22	x	x	4402
NC(=O)CSc1nnc(-c2ccc(S(=O)(=O)N3CCCCC3)cc2)n1-c1ccccc1	1	-2	2	-3	3	5.8	9596
CC(=NNC(=O)c1ccoc1C)C12CC3CC(CC(C3)C1)C2	x	-4	7	x	-6	2.0	x
O=C(Cc1c(F)cccc1Cl)Nc1cccc(S(=O)(=O)NC2=NCCCCC2)c1	2	-9	9	-1	-1	1.4	4400
C/C(=N\N(Cc1ccccc1)c1ccccc1)c1ccncc1	6	x	x	-3	x	x	4451
CCOc1ccc2[nH]c(=O)c(CN(CCO)C(=O)c3ccc(F)cc3)cc2c1	8	-2	-7	-7	-9	-4.4	2957
CC(C)(C)NC(=O)C(c1ccncc1)N(Cc1ccc(F)cc1)C(=O)c1ccc(-c2ccccc2)[nH]1 (configuration not stated)	-7	-8	16	-6	1	4.0	3060
CCOc1cc(C(=O)NCC(C)(C)CNC(=O)c2cc(OCC)c(OCC)c(OCC)c2)cc(OCC)c1OCC	4	1	4	x	-4	5.9	x
COc1ccc(Nc2cc(C(=O)NCCCN3CCOCC3)c3ccccc3n2)cc1	-2	7	-7	-9	1	2.8	6335
CCN(CC(=O)Nc1c(C(=O)OC)[nH]c2ccc(Cl)cc12)c1ccc2c(c1)OCO2	-6	6	0	-23	-26	-9.5	2503
CCOC(=O)c1cc(OCC(=O)NC(C)C(C)C)cc(C(=O)OCC)c1 (configuration not stated)	-4	x	x	-4	0	1.4	4549
COC(=O)c1ccccc1NC(=O)NCc1ccccc1	-9	3	-13	-18	-4	1.3	2601
CC1=NN(c2nc(-c3ccc(Cl)cc3)cs2)C(=O)C1	6	-61	-4	-17	-5	22	4566
Cc1cc(C)nc(Sc2ncnc3sc4c(c23)CCC4)n1	6	3	-6	-9	1	0.6	5990
COc1cc(C=NNc2nncn2N)ccc1OCc1c(C)no[n+]1[O-]	x	-10	-2	x	16	4.9	x
O=C(Nc1ccccc1Cl)N1CCN(c2ccc3nncn3n2)CC1	-11	3	3	1	10	0.6	5601
COc1ccc(CC(=O)NCC(=O)NN=C(C)c2ccco2)cc1	x	3	5	x	8	4.2	x
O=C(CN(Cc1ccco1)C(=O)c1ccc(Cl)cc1)Nc1ccc(Cl)c(Cl)c1	17	10	7	-15	2	4.0	1973
O=C(NCc1cccc(C(F)(F)F)c1)C1CC2Cn3c(nc4ccccc43)C2N1Cc1ccccc1 (configuration not stated)	4	6	11	-18	1	-0.2	4119
O=C(O)/C(=C/c1ccco1)NC(=O)c1ccccc1	-9	x	x	1	x	x	2050
COc1cc(CNc2ccc3[nH]c(=O)[nH]c3c2)ccc1OCc1ccccc1F	-7	2	1	-24	6	-1.1	x
Cc1nc2ccc(NC(=S)NCCCO)cc2nc1C	-2	11	15	-3	2	3.0	2633
COC(C(=O)Nc1ccc(C(N)=O)cc1)c1ccccc1 (configuration not stated)	2	9	-2	-17	4	5.9	2533
COc1ccc(C2C(C(C)=O)=C(C)N=c3s/c(=C\c4ccc5c(c4)OCO5)c(=O)n32)c(OC)c1 (configuration not stated)	9	x	x	-28	x	x	4291
COC(=O)c1ccc(C(=O)OC)c(NC(=O)CN2CCN(c3ccccc3)CC2)c1	-6	20	11	-26	-2	2.9	13103
Cc1onc(C(=O)NC2CCCCC2)c1[N+](=O)[O-]	3	12	7	-20	0	1.4	4981
COc1ccc(NC(=O)c2sc3ncnc(N4CCN(c5ccccn5)CC4)c3c2C)cc1Cl	-2	-10	15	10	7	-1.6	5473
Cc1c(N(C)C(=O)C23CC4CC(CC(C4)C2)C3)c(=O)n(-c2ccccc2)n1C	9	x	x	0	2	0.6	2863
COc1ccc(C(=O)CSc2nnc3n2CCCN3C(=O)Nc2ccccc2)cc1	-12	0	11	x	-6	8.7	5482
CN1C[C@H](CO)C[C@@H]2c3cccc4[nH]cc(c34)C[C@H]21	-6	5	10	-8	10	5.9	3752
O=C(Nc1ccccn1)c1cccnc1	10	8	0	-22	-3	4.8	2451
Cc1cccc(C)c1OCC(=O)Nc1nnc(C2CCCO2)s1 (configuration not stated)	-3	4	7	-13	-1	-0.1	7190
O=C(Nc1ccc2ccccc2c1)c1cccc([N+](=O)[O-])c1	-3	5	4	-20	-3	-5.2	3986
CC1CN(C(C)CO)C(=O)c2cc(NC(=O)C3CC3)ccc2OC1CN(C)C(=O)Nc1ccccc1 (configuration not stated)	x	-1	3	x	-4	-1.5	x
Cc1[nH]c2ccccc2c1-c1csc(NC(=O)CSCC(=O)O)n1	2	17	17	8	3	4.3	4514
COc1ccc(CN2CCCC(C(=O)N3CCCCC3)C2)cc1OC (configuration not stated)	-3	13	4	4	3	1.0	2935
CC1Cc2ccccc2N1C(=O)CCS(=O)(=O)c1ccc2c(c1)NC(=O)CS2 (configuration not stated)	-6	-14	-6	-17	9	4.5	7101
COC(=O)c1sccc1NC(=O)c1ccc(Br)s1	-7	4	4	-4	1	14	22720*
Continuation.
SMILES	BJeLR lethal	Mtb hypoxia rep	Mtb hypoxia rep growth	PrP 5UTR inh	ugtP null kill	RN4220 kill	Autofluor counter
O=C(NC(=S)NCc1ccccc1)c1ccccc1[N+](=O)[O-]	0	3	-8	-26	23	8.1	3379
Cc1cc(NC(=O)CCCOc2ccc(Cl)cc2Cl)no1	5	9	5	-16	-1	3.0	6819
COc1ccc2c(c1OC)C(=O)OC2Nc1ccccn1 (configuration not stated)	4	-6	2	-11	-2	2.2	2832
CCN(C(=O)Nc1ccccc1)c1ccccc1	16	x	x	-17	x	x	2126
CC(C)(C)c1ccc(C(=O)N2CCCN(C(=O)c3ccc(C(C)(C)C)cc3)CC2)cc1	-15	11	9	-27	9	4.7	2648
O=C1C2CCCN2C(=O)N1CCN1CCN(c2ccccc2)CC1 (configuration not stated)	-1	11	-2	-21	7	5.4	2169
CC(NC(=O)c1nc[nH]c1C(=O)NCCCCCNC(=O)OC(C)(C)C)C(=O)OC(C)(C)C (configuration not stated)	x	7	4	x	0	3.0	x
CN(C)C(N)=NCCC[C@H](N)C(=O)O	-4	x	x	-15	x	x	6217
O=C(OC(C(=O)NC1CCCC1)c1ccccc1F)c1ccco1 (configuration not stated)	12	5	8	-13	2	7.0	3868
CC(=O)Nc1ccc(S(=O)(=O)NN=CCCc2ccccc2)cc1	x	7	8	-27	3	0.8	4107
O=C(/C=C/c1ccccc1)Nc1ccc2c(c1)C(=O)NC2=O	9	x	x	2	x	x	5597
NC(=O)NC(=O)CC1S/C(=N/N=C2CSC(=O)N2)NC1=O (configuration not stated)	x	-6	6	x	3	6.1	x
O=C1C2(c3ccccc3)CN3CN(C2)CC1(c1ccccc1)C3	-16	-3	-1	-11	0	2.5	10135
Cc1ccc(Cl)cc1N(CC(=O)NC(C)c1ccccc1)S(C)(=O)=O (configuration not stated)	4	x	x	-3	x	x	3955
COc1ccc(/C=C2\CCc3ccccc3C2=O)cc1O	9	3	13	-37	0	2.3	5314
COc1ccccc1NC(=O)C(C)OC(=O)CN1C(=O)C2CC=CCC2C1=O (configuration not stated)	-1	4	7	-17	3	1.3	u
O=C(COc1ccc(F)cc1)NCC1(N2CCCCC2)CCCCC1	x	-10	-8	-75	6	5.3	u
CC(OC(=O)c1ccc(Cl)c([N+](=O)[O-])c1)C(=O)N1CCN(Cc2ccccc2)CC1 (configuration not stated)	x	7	6	-29	2	3.8	7804
Cc1cccc2sc(N(CCCN(C)C)C(=O)c3cc4ccccc4oc3=O)nc12	0	11	4	-14	-3	-1.0	10447
O=C(O)c1ccc(Nc2ccc(Cl)c(Cl)c2)c([N+](=O)[O-])c1	5	6	0	-18	2	11	3075
COCCNC(=O)c1cn(C)c2ccccc2c1=O	-1	-10	-1	-30	6	3.1	4194
O=C(NCC1CCCO1)c1onc(CSc2cccc(Cl)c2)c1C(=O)O (configuration not stated)	17	20	4	-8	5	6.7	3074
CC(=NOC(=O)Nc1ccc(Cl)cc1)c1ccc(F)c(F)c1	x	5	3	x	-10	13	x
COc1cc(C=NNC(=O)c2cccc(S(=O)(=O)N3CCCC3)c2)ccc1O	x	2	3	x	3	2.1	x
O=C(NCC1CCCN1S(=O)(=O)c1cccs1)c1ccc(F)c(F)c1 (configuration not stated)	6	4	13	-30	3	0.4	5411
COc1ccccc1C(=O)NC(=O)COC(=O)c1cc[n+]([O-])cc1	-3	8	-3	-30	1	2.5	5741
Cc1ccccc1-c1nc(CN2CCC(C(=O)O)CC2)c(C)o1	-3	6	8	4	10	0.1	4580
COc1cc(-c2nnc(COC(=O)c3nn(CC(C)C)c(=O)c4ccccc34)o2)cc(OC)c1OC	-6	1	-2	-10	3	2.2	5939
CC1(C2CC2)NC(=O)N(CC(=O)Nc2ccc(C(F)(F)F)cc2)C1=O (configuration not stated)	x	3	3	-21	3	1.9	3578
CC(C)C(c1nnnn1Cc1ccccc1)N1CCN(Cc2ccco2)CC1 (configuration not stated)	2	x	x	-1	0	-0.6	2758
CC(C)=C1C2C=CC1C(C(=O)Nc1cccc(C)c1)C2C(=O)O (configuration not stated)	6	6	12	-17	1	5.7	10394
O=C(C(=O)N1CCN(c2cccc(Cl)c2)CC1)c1c[nH]c2ccccc12	2	-7	-13	-6	-12	-3.4	2507
COc1ccc(-c2cn(CCC(=O)O)c(-c3ccc(Cl)nc3)n2)cc1	x	10	7	-11	-2	5.5	4675
CC(C)(C)N/C=C(\C#N)S(=O)(=O)c1ccc(Br)cc1	-8	-12	4	x	13	-1.7	x
Cc1cccc(C(=O)Nc2nc(C)c(C(=O)Nc3ccc4c(c3)CCC4)s2)c1	-2	8	0	-62	-16	6.4	8197
CCN(C(=O)CSc1ncnc2sc(C)c(C)c12)C1CCS(=O)(=O)C1 (configuration not stated)	6	10	1	-8	5	3.4	4424
